# Compound activity as filed in PubChem BioAssay.
# CtBP-E1A blk: qHTS Assay for Inhibitors of the CtBP/E1A Interaction. AlphaScreen GST-E1A/His-CtBP binding, 1536-well; active compounds read low; control for the full effect not named in the record. hit rate 0.49% among 340,000. CtBP / adenovirus E1A interaction (AlphaScreen). AID 651724, 2012. activity change, % (concentration not given with the values); in the data active means activity change below about -65%; inconclusive means about -30% to -65%; inactive means above about -30%
#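 Homogeneous bead-based format: GST-tagged E1A captured on glutathione donor beads, His-tagged CtBP on nickel acceptor beads; compounds precede bead addition by 2 h at 37 °C.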
# Six1-Eya2 inh: qHTS Assay for Inhibitors of the Six1/Eya2 Interaction; Homeobox protein SIX1 (Homo sapiens) + Protein phosphatase EYA2 (Homo sapiens), …; AlphaScreen GST-Six1/His-Eya2 binding, biochemical; active compounds read low; control for the full effect not named in the record; activity change, % (concentration not given with the values); hit rate 0.56% among 360,000; in the data active = activity change below about -65%; inconclusive = about -30% to -65%; inactive = above about -30%
# Target sequence (O00167 whole entry, looked up): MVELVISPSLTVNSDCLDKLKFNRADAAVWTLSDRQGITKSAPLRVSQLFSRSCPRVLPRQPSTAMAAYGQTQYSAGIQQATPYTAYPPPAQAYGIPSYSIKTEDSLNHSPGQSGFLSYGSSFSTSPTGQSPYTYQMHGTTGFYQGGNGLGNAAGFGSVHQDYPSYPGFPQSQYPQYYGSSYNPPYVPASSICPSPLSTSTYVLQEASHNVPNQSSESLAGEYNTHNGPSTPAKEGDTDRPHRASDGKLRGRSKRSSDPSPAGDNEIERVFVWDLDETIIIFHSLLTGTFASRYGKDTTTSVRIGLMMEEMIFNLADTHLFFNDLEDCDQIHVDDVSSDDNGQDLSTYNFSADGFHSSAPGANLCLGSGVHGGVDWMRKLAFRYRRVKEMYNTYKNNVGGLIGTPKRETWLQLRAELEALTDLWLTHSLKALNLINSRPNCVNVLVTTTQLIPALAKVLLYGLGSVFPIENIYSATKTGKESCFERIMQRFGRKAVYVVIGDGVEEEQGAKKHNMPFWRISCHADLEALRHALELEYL
# Target sequence (Q15475 whole entry, looked up): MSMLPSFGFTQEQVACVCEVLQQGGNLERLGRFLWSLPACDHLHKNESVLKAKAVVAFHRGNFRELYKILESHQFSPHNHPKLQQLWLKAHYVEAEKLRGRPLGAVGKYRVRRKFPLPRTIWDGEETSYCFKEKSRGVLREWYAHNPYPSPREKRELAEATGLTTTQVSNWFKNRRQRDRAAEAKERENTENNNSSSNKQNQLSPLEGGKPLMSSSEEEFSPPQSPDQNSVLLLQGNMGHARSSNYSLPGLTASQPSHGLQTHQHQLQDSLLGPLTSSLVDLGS
#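 GST-Six1 + His-Eya2 (5X stock: 250/500 nM); Tris pH 8.0, 300 mM NaCl, 0.05% BSA, 0.02% Tween 20; GSH donor/Ni acceptor beads; 1 h 37 °C dark; AlphaScreen readout.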
# * hit, by the source's call; ? = inconclusive. % is scaled to controls: 0 for no effect and ±100 for the full control effect. Only part of the results is shown; count on the stated rates, not on these rows.
SMILES,CtBP-E1A blk,Six1-Eya2 inh
O=C(NC1CCCC1)C1C(c2ccc(C(F)(F)F)cc2)=Nc2ccccc2N1C(=O)c1cccc2ccccc12 (stereo not drawn),-15.0,5.2
CC(=O)C[C@@H]1SC[C@H](c2ccccc2)N1S(=O)(=O)c1ccc(C)cc1,0.0,7.3
O=C(N[C@H]1CC[C@H](CCNC(=O)C2CC2)O[C@@H]1CO)c1ccccn1,-1.7,-7.5
Cc1cccc(C)c1NC(=O)C1(C)CSCC(=O)N1CCc1ccccc1 (stereo not drawn),-4.0,-2.6
Cc1ccc(S(=O)(=O)N2[C@@H](Cc3ccccc3)CO[C@H]2CC(=O)c2cccs2)cc1,-1.6,2.3
CCOC(=O)C[C@@H]1OC[C@H](CO)N1S(=O)(=O)c1ccc(C)cc1,-16.7,23.4
Cc1ccc(S(=O)(=O)N[C@H](CO)C(C)C)cc1,8.6,4.3
O=C(C[C@H]1CC[C@H]2[C@@H](COC[C@H](O)CN2Cc2ccccc2)O1)NCCCN1CCOCC1,9.4,-2.0
COC(=O)[C@@]12C[C@@H](CC(=O)N3CCSCC3)C(=O)N(Cc3ccco3)C1=CCC(C)(C)C2,-9.0,0.0
Cc1cc(N2CCN(C(C(=O)NC3CCCC3)C(C)C)CC2)c2ccccc2n1 (stereo not drawn),0.0,12.5

# Gathered by group, those above containing two or more sulfur atoms.
SMILES,CtBP-E1A blk,Six1-Eya2 inh
CC(=O)C[C@@H]1SC[C@H](c2ccccc2)N1S(=O)(=O)c1ccc(C)cc1,0.0,7.3
Cc1ccc(S(=O)(=O)N2[C@@H](Cc3ccccc3)CO[C@H]2CC(=O)c2cccs2)cc1,-1.6,2.3

# Following part
SMILES,CtBP-E1A blk,Six1-Eya2 inh
COC(=O)C[C@@H]1CC[C@@H](NS(=O)(=O)c2ccc(F)cc2)[C@@H](CO)O1,-12.9,11.0
CC1(C(=O)NCc2ccccc2)CSCC(=O)N1C1CC1 (stereo not drawn),-11.1,9.6
COC(=O)[C@@]12C[C@@H](CC(=O)NCc3ccc(OC)c(OC)c3)C(=O)N(Cc3ccccc3)C1=CCC(C)(C)C2,4.0,-10.7
CC(C)(C)NC(=O)C(c1ccccc1)n1c(=O)c(-c2cc3ccccc3[nH]2)nc2ccccc21 (stereo not drawn),1.2,72.9
CCCCNC(=O)C(NC(=O)c1ccc(-c2ccccc2)cc1)C(=O)c1ccccc1 (stereo not drawn),-1.6,4.9
COc1ccc(Cn2cc(CN3CCc4onc(-c5ccc(Br)cc5)c4C3=O)nn2)cc1,8.6,-6.0
CCCCCCCCN1C(=O)[C@H](CC(=O)N2CCCCC2)C[C@@]2(C(=O)OC)CC(C)(C)CC=C12,-22.0,-0.6
COC(=O)C[C@@H]1C=C[C@H](NC(=O)Nc2ccc(F)cc2)[C@@H](CO)O1,-0.4,9.5
N#Cc1cccc(C(=O)C(=O)N2CCN(c3ccccc3)CC2)c1,-0.9,-0.8
COC(=O)C[C@H]1CC[C@H](NC(=O)Nc2ccccc2)[C@@H](CO)O1,10.8,0.4

# Compound profiles (already shown). Order of screens: CtBP-E1A blk | Six1-Eya2 inh
# `COC(=O)[C@@]12C[C@@H](CC(=O)NCc3ccc(OC)c(OC)c3)C(=O)N(Cc3ccccc3)C1=CCC(C)(C)C2` reads 4.0 | -10.7
# `CC(C)(C)NC(=O)C(c1ccccc1)n1c(=O)c(-c2cc3ccccc3[nH]2)nc2ccccc21` (stereo not drawn) reads 1.2 | 72.9
# `COC(=O)C[C@H]1CC[C@H](NC(=O)Nc2ccccc2)[C@@H](CO)O1` reads 10.8 | 0.4
# `N#Cc1cccc(C(=O)C(=O)N2CCN(c3ccccc3)CC2)c1` reads -0.9 | -0.8

# (further entries)
SMILES,CtBP-E1A blk,Six1-Eya2 inh
COC(=O)C1(C(=O)OC)c2ccccc2N(S(=O)(=O)c2ccc(C)cc2)C1CC(C)=O (stereo not drawn),-0.5,5.7
CC(=O)C[C@@H]1OC[C@H](C(C)C)N1S(=O)(=O)c1ccc(C)cc1,3.0,-5.0
O=C(C[C@@H]1CC[C@H](NC(=O)c2ccc3c(c2)OCO3)[C@@H](CO)O1)NCc1ccc(F)cc1,6.5,1.3
CCCCCCCCN1C(=O)[C@H](CC(=O)NCCCC)C[C@@]2(C(=O)OC)CC(C)(C)CC=C12,4.4,-4.1
CCCCNC(=O)C[C@@H]1C[C@@]2(C(=O)OCC)CCCC=C2N(CCc2ccc(OC)c(OC)c2)C1=O,0.3,-3.9
C=C[C@@H](c1ccccc1)[C@](C)(O)C(=O)O,-3.4,-2.5
CCOC(=O)[C@]12CCCC=C1N(CCC1=CCCCC1)C(=O)[C@H](CC(=O)NCCc1ccccc1OC)C2,-10.5,-3.3
COC(=O)C[C@H]1N(S(=O)(=O)c2ccc(C)cc2)C(C(C)C)CC1(C(=O)OC)C(=O)OC (stereo partly drawn),0.0,0.5
CCc1ccc(C2CC3C(CN2S(=O)(=O)c2ccc(C)cc2)[C@@H](O)C[C@@H](c2ccc(CC)cc2)N3S(=O)(=O)c2ccc(C)cc2)cc1 (stereo partly drawn),6.7,1.1
Nc1sc(-c2ccccc2)cc1C(=O)NCCc1ccc(Cl)cc1,2.6,-7.8
CC(C)(C)OC(=O)Nc1ccccc1-n1nnnc1C(C(=O)c1ccccc1)N1CCN(c2ccccn2)CC1 (stereo not drawn),-4.1,-4.1
O=C(Nc1c(-c2ccccc2)[nH][nH]c1=O)c1cnccn1,-0.3,-3.1
O=C(C[C@H]1CC[C@H]2[C@@H](COC[C@H](O)CN2C(=O)c2ccccn2)O1)N1CCN(c2ccccc2)CC1,4.5,-7.3
CCOC(=O)CC1(C)Oc2ccccc2N1S(=O)(=O)c1ccc(C)cc1 (stereo not drawn),1.1,4.9
CC(=O)N1CCC(C(=O)N2c3ccccc3N=C(c3ccc(C(F)(F)F)cc3)C2C(=O)NC2CCCC2)CC1 (stereo not drawn),3.2,4.5
CCOC(=O)N1CCN(C(C(=O)NC2CCCC2)c2ccco2)CC1 (stereo not drawn),0.0,18.2
COC(=O)C1=CN(c2ccc(N3CCOCC3)cc2)C(N)=C(C#N)C1c1cccc(F)c1 (stereo not drawn),5.5,-9.4
Cc1ccc(S(=O)(=O)N2CC3C(=O)C[C@@H](c4ccccc4)N(S(=O)(=O)c4ccccc4Cl)C3CC2c2ccccc2)cc1 (stereo partly drawn),0.9,-2.3
CCc1c(-c2cccc(Br)c2)ncn1Cc1cccc(-c2ccccc2)c1,23.4,6.7
COc1ccccc1-c1ncn(Cc2cccc(-c3ccccc3)c2)c1-c1cc(C)cc(C)c1,20.6,-5.6

# In the list so far, these have bromine.
SMILES,CtBP-E1A blk,Six1-Eya2 inh
COc1ccc(Cn2cc(CN3CCc4onc(-c5ccc(Br)cc5)c4C3=O)nn2)cc1,8.6,-6.0
CCc1c(-c2cccc(Br)c2)ncn1Cc1cccc(-c2ccccc2)c1,23.4,6.7

# Going on with the list.
SMILES,CtBP-E1A blk,Six1-Eya2 inh
O=c1c(-c2ccccc2)nc2ccccc2n1C(CCc1ccccc1)c1nc2ccccc2[nH]1 (stereo not drawn),0.3,-6.7
Cc1cccc(C)c1NC(=O)C(C)n1c(-c2ccc(=O)[nH]c2)nc2ccccc21 (stereo not drawn),8.9,0.0
CCOC1=C2CN(S(=O)(=O)c3ccc(C)cc3)C(c3cccc(Cl)c3)CC2N(S(=O)(=O)c2ccc(Cl)cc2)C(c2ccccc2)C1 (stereo not drawn),-9.9,6.3
N#Cc1ccc(C(C(=O)NC2CCCCC2)n2c(=O)c(-c3cc4ccccc4[nH]3)nc3ccccc32)cc1 (stereo not drawn),-4.8,57.1
O=C(Nc1ccc(F)cc1)C(c1cc2ccccc2o1)N1CCN(c2ccncc2)CC1 (stereo not drawn),0.0,20.7
COc1ccc(CN2C(=O)CSCC2(C)C(=O)NCc2ccccc2)cc1OC (stereo not drawn),0.5,-3.4
Cc1ccc(S(=O)(=O)N2C(c3ccc(Cl)c(Cl)c3)CC=C(C(=O)O)C2c2cccc(Cl)c2)cc1 (stereo not drawn),2.2,-0.1
COC(=O)[C@]12CCCCC=C1N(Cc1ccc3c(c1)OCO3)C(=O)[C@H](CC(=O)NCc1cccs1)C2,-4.6,-8.0
CC(C)(C)N1C(=O)c2ccccc2NC(=O)C1C(=O)Nc1ccc2c(c1)OCCO2 (stereo not drawn),5.9,8.7
O=C(C[C@H]1CC[C@H](NC(=O)C2CCOCC2)[C@@H](CO)O1)NCc1ccncc1,1.7,0.2
CCCCNC(=O)C(NC(=O)c1ccc2c(c1)OCO2)C(=O)c1ccccc1 (stereo not drawn),-0.9,-3.4
O=C(C(=O)N(C1CCCCC1)C1CCCCC1)c1ccccc1,0.1,3.6
COC(=O)[C@@]12C[C@@H](CC(=O)NCCCCc3ccccc3)C(=O)N(Cc3ccc4c(c3)OCO4)C1=CCC(C)(C)C2,-0.7,-15.5
COC(=O)[C@]12CCCCC=C1N(Cc1ccc3c(c1)OCO3)C(=O)[C@H](CC(=O)N1CCC(c3ccccc3)CC1)C2,-22.6,-11.2
Cc1cccc(C)c1NC(=O)C(c1ccnc2ccccc12)n1c(=O)c(-c2ccco2)nc2ccccc21 (stereo not drawn),3.3,-5.2
CC1(C(=O)NCc2ccccc2)CSCC(=O)N1C1CCN(Cc2ccccc2)CC1 (stereo not drawn),-8.5,-0.2
Cc1cccc(C)c1NC(=O)C(c1ccccc1)n1c(=O)c(-c2cc3ccccc3[nH]2)nc2ccccc21 (stereo not drawn),24.7,37.1
CCOC(=O)C1=CCN(S(=O)(=O)c2ccc(F)cc2)C1c1ccc(Cl)c(Cl)c1 (stereo not drawn),-12.8,5.8
CCCCNC(=O)C(NC(=O)c1cccs1)C(=O)c1ccccc1 (stereo not drawn),-1.7,4.2
COc1ccc(C(C(=O)Nc2c(C)cccc2C)N2CCN(c3ccc(C)cc3)CC2)cc1 (stereo not drawn),-0.4,-4.5
COCCN1C(=O)CN(S(C)(=O)=O)CC1(C)C(=O)Nc1ccc2c(c1)OCCO2 (stereo not drawn),0.0,16.7
CCCCCCCCN1C(=O)[C@H](CC(=O)NCc2ccccc2)C[C@@]2(C(=O)OC)CC(C)(C)CC=C12,-0.1,4.1
CCOC(=O)C1=CCC(c2cc3ccccc3[nH]2)NC1 (stereo not drawn),9.4,-13.8
C=CCn1nc(C(=O)Nc2ccc(OC)cc2)cc1-c1sc(NC(=O)c2ccccc2)nc1C,0.8,-13.0
CC(C)CN1C(=O)CSCC1(C)C(=O)NCc1ccccc1 (stereo not drawn),-1.7,-0.8
Cc1cccc(C)c1NC(=O)C1(C)CN(S(C)(=O)=O)CC(=O)N1Cc1cccc(F)c1 (stereo not drawn),1.1,3.9
CCC(c1nc2ccccc2[nH]1)n1c(-c2cnccn2)nc2ccccc21 (stereo not drawn),12.6,7.7
Cc1cccc(C)c1NC(=O)C(C1CC1)n1c(-c2ccc(-c3ccccc3)cc2)nc2ccccc21 (stereo not drawn),-3.4,-3.0
Cc1cc2c(cc1C)-c1nnnn1C(N1CCCC1)C(=O)N2 (stereo not drawn),2.0,7.2
CN(C)Cc1cn(CC[C@@H]2CC[C@@H](NC(=O)Nc3ccccc3F)[C@@H](CO)O2)nn1,-1.3,1.2
CCOC(=O)[C@]12CCCC=C1N(CCC1=CCCCC1)C(=O)[C@H](CC(=O)NCCC(C)C)C2,-18.5,-1.1
CCOC(=O)N1CCN(C(=O)C[C@@H]2C[C@@]3(C(=O)OC)CC(C)(C)CC=C3N(Cc3ccccc3)C2=O)CC1,-0.3,-0.1
C=CCn1c(C(C)n2c(-c3cnccn3)nc3ccccc32)nc2ccccc21 (stereo not drawn),6.3,2.4
COc1ccc(CNC(=O)C[C@@H]2CC[C@@H](NS(=O)(=O)c3cccc(OC)c3)[C@@H](CO)O2)cc1,3.5,1.4
O=C(NC1CCCCC1)C(CCc1ccccc1)n1c(=O)c(-c2ccccc2)nc2ccccc21 (stereo not drawn),5.5,8.4
CSCCC(c1nc2ccccc2[nH]1)n1c(-c2ccc(C)cc2)nc2ccccc21 (stereo not drawn),-0.4,?
COCCN1C(=O)CN(S(C)(=O)=O)CC1(C)C(=O)NC(C)C (stereo not drawn),6.2,-1.8
Cc1ccc(S(=O)(=O)N2C3CCCCC3O[C@H]2CC(=O)Oc2ccccc2)cc1 (stereo partly drawn),0.5,-4.6
COC(=O)[C@]12CCCCC=C1N(Cc1ccc3c(c1)OCO3)C(=O)[C@H](CC(=O)NCc1ccc(C)o1)C2,1.0,-13.5
O=C(Nc1ccc(F)cc1)C(c1cccc(F)c1)N1CCN(CC(=O)N2CCCC2)CC1 (stereo not drawn),-1.5,3.3
